Screening data (PubChem BioAssay)
Ba CapD inh – CapD enzyme inhibition. purified CapD enzyme, fluorescence intensity read-out; stronger effect = lower value; some hits fall short of the stated cut. z-score (concentration not given with the values). AID 492967. 140,000 tested, 0.23% active;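 active = z-score under -4 in either of two replicates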;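 note: stock transfer was 100 nL into about 40 µL; score is relative to mean and spread of the plate; one replicate is shown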
AID504770 – E. coli YBA685 growth inhibition, screen for V. cholerae RctB inhibitors. E. coli YBA685 rctB-dependent plasmid, OD600 growth, 3 h; stronger effect = lower value. z-score (concentration not given with the values). 130,000 tested, 0.27% active. AID 504770;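 active = z-score under -2 on both plates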;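 note: wells of about 30 µL received 100 nL stock; score is relative to mean and SD of the test wells; the first replicate is given; strong numbers were not always called active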
The depositor's hits bear a star; nt = no result given.

Start of the listing, in advance (16 entries):
SMILES | Ba CapD inh | AID504770
CC1=C(C)CC2C(=O)N(c3ccc(N(C)C)cc3)C(=O)C2C1 (stereo not given) | -0.79 | -0.45
c1ccc(CSc2nnc3c(n2)OC(c2ccncc2)Nc2ccccc2-3)cc1 (stereo not given) | 0.065 | -0.15
Cc1cccc(-c2noc(CCC(=O)N(C)C)n2)c1 | -1.06 | -0.55
Cc1cc(C(=O)/C(C#N)=C/Nc2ccc(Cl)cc2)c(C(F)(F)F)o1 | 0.345 | 0.05
COc1ccc2[nH]c3c(c2c1)CCn1c-3nc2ccccc2c1=O | nt | -0.35
CN(C)c1ccc(C(=O)OCC(=O)c2ccccc2Cl)cc1 | -0.78 | -0.2
CCC(=O)Nc1cc(F)ccc1C | 0.1 | nt
CC1c2nc3ccccc3n2C(CC(=O)NCc2ccccn2)C(=O)N1Cc1ccccc1 (stereo not given) | 0.245 | 0.2
Cn1nc(C(=O)Nc2cccnc2)c2ccccc2c1=O | -0.535 | -0.15
COc1ccc(-c2cc(C(F)(F)F)nc(SCCC(=O)NCCc3ccccc3)n2)cc1 | -0.445 | 0.05
O=C1CCSCC1 | nt | 0.05
O=C(O)C(O)C(O)c1ccccc1 (stereo not given) | -0.115 | -0.05
COc1ccc(N(CC(=O)NCCc2ccc(OC)c(OC)c2)S(=O)(=O)c2ccc(C)cc2)cc1 | -0.775 | nt
O=C(Nc1nccs1)c1cccc([N+](=O)[O-])c1 | -0.03 | nt
c1ccc(-c2nccnc2-c2ccccc2)cc1 | -0.325 | nt
C[C@@H](C(=O)Nc1ccc(S(=O)(=O)N2CCCC2)cc1)N1C(=O)C2CC=CCC2C1=O (stereo not given in full) | nt | 0.1

All compounds of this part (from the top)
SMILES | Ba CapD inh | AID504770
CC1=C(C)CC2C(=O)N(c3ccc(N(C)C)cc3)C(=O)C2C1 (stereo not given) | -0.79 | -0.45
c1ccc(CSc2nnc3c(n2)OC(c2ccncc2)Nc2ccccc2-3)cc1 (stereo not given) | 0.065 | -0.15
Cc1cccc(-c2noc(CCC(=O)N(C)C)n2)c1 | -1.06 | -0.55
Cc1cc(C(=O)/C(C#N)=C/Nc2ccc(Cl)cc2)c(C(F)(F)F)o1 | 0.345 | 0.05
COc1ccc2[nH]c3c(c2c1)CCn1c-3nc2ccccc2c1=O | nt | -0.35
CN(C)c1ccc(C(=O)OCC(=O)c2ccccc2Cl)cc1 | -0.78 | -0.2
CCC(=O)Nc1cc(F)ccc1C | 0.1 | nt
CC1c2nc3ccccc3n2C(CC(=O)NCc2ccccn2)C(=O)N1Cc1ccccc1 (stereo not given) | 0.245 | 0.2
Cn1nc(C(=O)Nc2cccnc2)c2ccccc2c1=O | -0.535 | -0.15
COc1ccc(-c2cc(C(F)(F)F)nc(SCCC(=O)NCCc3ccccc3)n2)cc1 | -0.445 | 0.05
O=C1CCSCC1 | nt | 0.05
O=C(O)C(O)C(O)c1ccccc1 (stereo not given) | -0.115 | -0.05
COc1ccc(N(CC(=O)NCCc2ccc(OC)c(OC)c2)S(=O)(=O)c2ccc(C)cc2)cc1 | -0.775 | nt
O=C(Nc1nccs1)c1cccc([N+](=O)[O-])c1 | -0.03 | nt
c1ccc(-c2nccnc2-c2ccccc2)cc1 | -0.325 | nt
C[C@@H](C(=O)Nc1ccc(S(=O)(=O)N2CCCC2)cc1)N1C(=O)C2CC=CCC2C1=O (stereo not given in full) | nt | 0.1
CC1(C)CC(=O)C(C(C2=C(O)CC(C)(C)CC2=O)c2cccc([N+](=O)[O-])c2)C(=O)C1 (stereo not given) | -0.23 | nt
CCC1(c2ccccc2)C(N)=Nc2ccccc21 (stereo not given) | 0.205 | 1.05
O=C(CCCc1nc(-c2ccccc2Cl)no1)Nc1ccccc1C(F)(F)F | -0.665 | -1.15
Cc1ccc(OCc2nc(C#N)c(N(C)C)o2)cc1 | 1.21 | 0.45
O=C(CSCc1ccc(C(=O)O)cc1)Nc1ccccc1 | 12.9 | 1.35
CCN(c1ccccc1)S(=O)(=O)c1ccc2[nH]cc(C(=O)NCCC3=CCCCC3)c(=O)c2c1 | -0.715 | -0.15
Cc1cccc(S(=O)(=O)N2CCSC2c2ccccc2)c1 (stereo not given) | 0.21 | -1.45
COCCNC(=O)C12CC3CCC(CC(C3)C1)C2 | 0.33 | 1.4
CCC(CO)NCc1ccc2c(c1)c1ccccc1n2CC (stereo not given) | nt | -1
CCc1cc(=O)[nH]c(SCc2cc(C(F)(F)F)cc(C(F)(F)F)c2)n1 | -0.31 | nt
COc1ccc([N+](=O)[O-])cc1-c1[nH]c(-c2cc(OC)c(O)c(OC)c2)nc1-c1ccccc1 | -1.64 | nt
CN(C)/C=N/S(=O)(=O)c1ccccc1 | -0.51 | nt
Cc1cccc(NC2=NC(CO)(CO)CS2)c1 | -0.42 | nt
Cc1nc2ccccc2n1C1CC(=O)N(c2ccc(F)cc2)C1=O (stereo not given) | -0.55 | -0.6
O=C(Cn1sc2ccccc2c1=O)NCc1ccccc1 | -0.57 | -1.2
O=C(SCC(=O)N1CCOCC1)c1ccccc1 | -0.455 | -0.4
CC1CN(CC(=O)NC(=O)NCc2ccco2)CC(C)O1 (stereo not given) | nt | 0.4
O=C(Cn1cncn1)N/N=C/c1ccc(Oc2ccccc2)cc1 | 0.69 | nt
CS(=O)(=O)NN1C(=O)c2ccccc2NC12CCCC2 | 57.8 | -0.05
CNC(=S)NNc1nncc2ccccc12 | -2.01 | 2.15
COC(=O)CSc1cc(C(F)(F)F)nc2ccccc12 | -0.86 | nt
COc1ccccc1NC(=S)N(C1CCCCC1)C(C)c1ccco1 (stereo not given) | 53.1 | 0.2
CCOC(=O)c1c(C)oc2nc(C)nc(N(C)c3cc(Cl)c(OC)cc3OC)c12 | -0.28 | 0.1
O=C(Cc1ccccc1)Nc1ccc(-c2nnc3n2CCCCC3)cc1 | 0.805 | -0.35
N#Cc1nccnc1S(=O)(=O)c1cccs1 | 0.71 | -7.85*
CCOC(=O)Cc1c(C(=O)OCC)sc(N)c1C#N | 1.08 | -1.15
CN1CCN(P2(=O)CC=CC2)CC1 | nt | 0.4
COc1ccc(C(=O)Oc2cccc(NC3=NS(=O)(=O)c4ccccc43)c2)c(OC)c1 | 0.79 | nt
Cc1ccc(-c2cc(-c3ccccc3)nc(NN)n2)cc1 | 3.16 | 0.35
CC1(C)Cc2cccc(C(=O)NCC3COc4ccccc4O3)c2O1 (stereo not given) | -0.045 | 0.05
Cc1cccc(CCOC(=O)NNC(=O)/C=C/c2cccc(C(F)(F)F)c2)c1 | 0.745 | nt
O=C(Cc1ccc(Br)cc1)N1CCN(C(=O)OCCN2CCN(CCCN3c4ccccc4Sc4ccc(C(F)(F)F)cc43)CC2)CC1 | 0.51 | nt
COC(=O)c1sc2ncn(N)c(=O)c2c1C | nt | 0.3
CC(C)n1c(-c2cccs2)nc2ccccc21 | 74.1 | -0.3

Next records.
SMILES | Ba CapD inh | AID504770
O=c1ccc2cc([N+](=O)[O-])ccc2o1 | -0.55 | nt
O=c1[nH]c2c(n(C3CCCCC3)c1=O)CCC2 | nt | 2.1
NC(N)=Nc1ccc2c(c1)OCCO2 | 0.035 | -0.35
Cn1c(=O)c(C#N)cc2c(=O)n3ccccc3nc21 | 72.4 | 1.3
CCOc1ccc(CNc2ccc(N3CCOCC3)cc2)cc1OC | nt | -0.55
CCCC(C)C(=O)Nc1nnc(C(C)C)s1 (stereo not given) | 0.055 | -1
CCOC(=O)c1sc(SC(C)CC)c(C#N)c1-c1ccc(Cl)cc1 (stereo not given) | -0.055 | nt
O=C(O)CC(c1cccc(O)c1)N1Cc2ccccc2C1=O (stereo not given) | -0.46 | -0.45
Cn1c2ccccc2c2cc(C(=O)N/N=C/c3ccc(-c4ccc(S(N)(=O)=O)cc4)o3)sc21 | nt | 0.2
CCC(Oc1ccc2c(c1)OCO2)C(=O)O (stereo not given) | nt | 0.8
CCCCN(C)C(=O)c1cc2cc3ccc(C)cc3nc2s1 | 0.045 | -0.3
CCCNC(=O)c1ccc(-n2c(=S)[nH]c3ccccc3c2=O)cc1 | 0.435 | -0.2
O=C1c2ccccc2C(=O)C1(CO)c1ccccc1 | -0.185 | -0.7
CS(=O)(=O)N1CCN=C1SCc1cccc(F)c1 | -0.83 | -0.95
CCOC(=O)/C=C1\SCC(=O)N1CCOC(=O)c1cc(Cl)c(N)cc1OC | nt | -0.15
COc1cc(Cl)c(C)cc1NC(=S)N(Cc1cccnc1)Cc1ccco1 | 0.03 | 0.4
O=C(Nc1ccccc1OC(F)F)C1(c2ccccc2)CC1 | nt | 0
CCCc1ccc(S(=O)(=O)Nc2ccc(NC(C)=O)cc2)cc1 | 0.175 | nt
CCCC(C(=O)O)N1C(=O)/C(=C/c2ccc(O)c(OCC)c2)SC1=S (stereo not given) | -7.48* | 2.6
CC(=O)NC1=NC(=O)/C(=C/c2ccc(-c3cccc(Cl)c3C)o2)S1 | -1.05 | nt
N#Cc1c(N)nc(SCC(=O)c2ccc(O)c(O)c2)c(C#N)c1-c1ccc(O)cc1 | 2.94 | nt
CC(C)c1ccc(-c2c(C#N)c(N)nc3c2CCC3)cc1 | 7.12 | 1.3
CCN(CC)N=Nc1ccc(C(=O)O)cc1 | nt | -0.55
CCn1c(SCC(=O)Nc2c(Cl)cc(S(N)(=O)=O)cc2Cl)nc2ccccc21 | nt | 0.35
N#Cc1ccc(-c2ccc(Cl)cc2)n(Cc2ccc(Cl)cc2Cl)c1=O | 1.06 | nt
COc1cc(OC)nc(C(=O)N2CCN(c3ccccn3)CC2)n1 | -0.075 | nt
COc1ccc(CC(CN)c2ccccc2)cc1 (stereo not given) | nt | 1.05
Cc1csc2c(SCC(=O)NN)ncnc12 | 0.04 | nt
COc1ccc2cc(Br)ccc2c1CC(=O)N1CCOCC1 | 0.33 | -1.15
Cc1cc2c(cn1)C(CCC#N)(CCC#N)c1ccccc1-2 | nt | 0.55
Cc1c(O)ccc2c(=O)c(-c3ccc(F)cc3)c(C(F)(F)F)oc12 | -0.71 | 0
Cc1cc(C)c(S(=O)(=O)Nc2cc(SCC(=O)O)c(O)c3ccccc23)cc1C | -2.92 | -0.1
COc1ccc(C2N3CCCN2CC3)cc1 (stereo not given) | nt | 0.7
CC12CC(c3ccccc3O1)C(c1nc3ccccc3[nH]1)C(=O)N2 (stereo not given) | 0.015 | nt
COC(=O)C1=C(C)NC(=S)NC1c1ccccc1 (stereo not given) | -0.465 | 0.1
CN1C(=O)/C(=C/c2c(N(C)C)nc3ccccn3c2=O)SC1=S | 0.11 | 0.4
Clc1ccc(SCc2ccsc2-c2ncns2)cc1 | 0.1 | -0.6
COC(=O)C1=NNC2(C)C(=O)N(c3ccc(C)cc3)C(=O)C12 (stereo not given) | 0.8 | nt
CN(C)CC1CCCCC1OC(=O)c1ccc(Br)o1 (stereo not given) | 1.1 | 0.05
COc1ccc(OCCOc2cccc(N)c2)cc1 | nt | 0.25

Reprinted from the part before: two compounds, followed by the next part.
SMILES | Ba CapD inh | AID504770
CN(C)CC1CCCCC1OC(=O)c1ccc(Br)o1 (stereo not given) | 1.1 | 0.05
COc1ccc(OCCOc2cccc(N)c2)cc1 | nt | 0.25
COC(=O)C1=C(C)Nc2c(c(=O)n(C)c(=O)n2C)C1c1ccc(C)cc1 (stereo not given) | nt | 0.4
CC1CN(C(=O)c2cc(F)c(F)cc2Cl)CC(C)O1 (stereo not given) | -0.025 | -0.75
COCc1nc2ccccc2n1CCOc1ccccc1 | 0.01 | 0.45
CC(=O)Nc1ncc2c(n1)CC(c1ccc(Cl)cc1)CC2=O (stereo not given) | 0.405 | -0.45
O=C1C2C(C(=O)N1c1ccc(Br)cc1)N1CCCN1C2c1ccc(Cl)cc1 (stereo not given) | -0.4 | nt
CCOC(=O)c1sc(SCCO)c2c1CC(C)(C)CC2=O | -0.57 | 0.4
Cc1cc(C)nc(NS(=O)(=O)c2ccc(NC(=O)CSc3nnc(N)s3)cc2)n1 | 0.49 | nt
CCOc1ccc(NC(=O)c2sc3nc(C)nc(N4CCCCC4)c3c2C)cc1 | -0.635 | nt
Brc1cccc(-c2nnc(Nc3ccccc3)o2)c1 | 17 | -0.15
COc1ccc(Cl)cc1NC(=O)CN(c1cc(Cl)ccc1OC)S(=O)(=O)c1ccc(OC)c(OC)c1 | -0.27 | nt
CC1(C)CC(=O)C2=C(C1)NC(Nc1nc3ccccc3o1)=NC2c1ccccn1 (stereo not given) | nt | 1.75
O=C(O)C(Cc1ccccc1)N1Cc2ccccc2C1=O (stereo not given) | -0.79 | 1.55
C=C(C)C(CC=C(C)C)COC(=O)NC(Cc1ccc(Cl)cc1)C(=O)OCC (stereo not given) | 0.89 | nt
COc1ccc2c(c1)cc1n2CCN2CCCN=C12 | 2.49 | -0.75
O=S1(=O)C=C(CSc2cccs2)c2cc(Cl)ccc21 | -0.715 | 1.55
COc1ccc(-c2cc(=O)c3cc(OCC(N)=O)ccc3o2)cc1 | 8.66 | -0.05
Cc1nc2c(cnn2-c2ccccc2)c(=O)n1NC(=O)Nc1ccc(Cl)c(Cl)c1 | -0.715 | -0.9
C=C(C)CN(CC)Cc1ccc(O)cc1 | -0.265 | -0.45
O=S(=O)(Nc1ccc(N2CCCCC2)cc1)c1ccc(-c2ccon2)s1 | 0.6 | -0.35
Cc1ccc(C(=O)Nc2nnc(-c3ccccc3)s2)cc1 | -0.535 | -0.55
COc1ccc(Cl)c(OC)c1C(=O)NC(=O)Nc1c(C)cccc1C | -0.185 | -1.1
O=c1sc2c(s1)SC1CC=CC1S2 (stereo not given) | 0.14 | nt
O=C(Nc1c2c(nn1-c1ccc([N+](=O)[O-])cc1)CS(=O)(=O)C2)c1cccc(Br)c1 | -0.64 | nt
COc1cccc(C2C(C(=O)Nc3ccccc3)=C(C)N=c3s/c(=C\c4cn(CC#N)c5ccccc45)c(=O)n32)c1 (stereo not given) | -1.63 | nt
COC(=O)C(Cc1c[nH]c2ccccc12)NS(=O)(=O)c1ccc(CNC(=O)c2ccccc2)s1 (stereo not given) | 0.11 | 0.85
COc1ccc(-n2c(-c3ccc(C(C)(C)C)cc3)n[nH]c2=S)cc1 | 2.41 | -0.7
CCOC(=O)CSc1ncc(-c2ccc(Cl)cc2)[nH]1 | -0.39 | -0.5
O/N=C/c1cnc(-c2ccccc2)[nH]1 | 0.68 | 0.35

Compounds were not picked by outcome; 0.39% or so of the library scored in one or more.
